Screens: PubChem, several laboratories
CBX7 AlphaScr: inhibitors of human CBX7 binding to H3K27me3 peptide; O95931; AlphaScreen His6-CBX7 / biotin-H3K27me3 peptide binding; hits give low values; normalised signal (fraction of DMSO) (test concentration not listed); 66,000 compounds, 1.1% hits; in the data active means normalised signal below about 0.5;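 further: 100 nL library stock added to about 20 µL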
Target sequence (O95931 whole entry, looked up): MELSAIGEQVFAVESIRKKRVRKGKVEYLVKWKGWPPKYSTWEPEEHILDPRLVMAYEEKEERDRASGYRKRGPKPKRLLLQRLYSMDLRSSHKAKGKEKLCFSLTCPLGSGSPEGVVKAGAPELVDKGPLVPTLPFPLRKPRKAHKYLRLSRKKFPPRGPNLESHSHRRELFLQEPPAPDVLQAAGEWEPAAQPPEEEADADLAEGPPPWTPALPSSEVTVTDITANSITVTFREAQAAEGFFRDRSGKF
CBX7 AlphaScr z-score: further read-out of CBX7 AlphaScr, marked with its call; z-score; measured here: z-score of CBX7 signal; some inactives read as strong as hits; reference of the scale not given here;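 same signal on another scale; lower means less binding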
Active calls of the source: *; & = joins results of further samples.

Sample of the layout, five compounds:
SMILES	CBX7 AlphaScr	CBX7 AlphaScr z-score
CCOC(=O)N1CCN(c2c(N3CCN(c4cccc(C)c4)C(C)C3)c(=O)c2=O)CC1 (stereo not given)	1.02	0.627
O=C(O)c1ccc2c(c1)NC(=O)C(CS(=O)(=O)Cc1ccc(Cl)cc1)N2 (stereo not given)	0.885	-2.49
CC(C)c1ccc(NC(=O)CCN2C(=O)c3ccccc3C2=O)cc1	1.06	2.29
COc1ccc(NC(=O)c2ccc(CNc3c(N4CCOCC4)c(=O)c3=O)cc2)c(OC)c1	1.35	0.793
CCOC(=O)N1CCN(c2c(NCCN3CCCCC3CC)c(=O)c2=O)CC1 (stereo not given)	0.962	-0.673

Results (from the top)
SMILES	CBX7 AlphaScr	CBX7 AlphaScr z-score
CCOC(=O)N1CCN(c2c(N3CCN(c4cccc(C)c4)C(C)C3)c(=O)c2=O)CC1 (stereo not given)	1.02	0.627
O=C(O)c1ccc2c(c1)NC(=O)C(CS(=O)(=O)Cc1ccc(Cl)cc1)N2 (stereo not given)	0.885	-2.49
CC(C)c1ccc(NC(=O)CCN2C(=O)c3ccccc3C2=O)cc1	1.06	2.29
COc1ccc(NC(=O)c2ccc(CNc3c(N4CCOCC4)c(=O)c3=O)cc2)c(OC)c1	1.35	0.793
CCOC(=O)N1CCN(c2c(NCCN3CCCCC3CC)c(=O)c2=O)CC1 (stereo not given)	0.962	-0.673
O=C(NCCCN1CCCC1=O)C1CCN(c2nnc(-n3cccc3)s2)CC1	1.01	0.492
O=C(CC1Nc2ccccc2NC1=O)Nc1ccc(N2CCOCC2)cc1 (stereo not given)	1.01	0.294
CCOC(=O)c1cnc2c(C(F)(F)F)cccc2c1Nc1ccc(N(C)C)cc1	0.159*	-38.1*
CCCC(=O)NCCCc1nc2ccccc2n1Cc1ccccc1F	1.17	1.76
Brc1c(OCc2cn3cccnc3n2)ccc2ccccc12	0.894	-1.25
O=c1[nH]cnc2c1[nH]c1ccccc12	0.856	-1.71
CCOC(=O)N1CCC(NC(=O)C2CCN(c3nc4ccc(OCC)cc4s3)CC2)CC1	0.928	-0.318
O=C(CS(=O)(=O)c1nc(-c2ccccc2)cn1-c1ccc(Cl)cc1)Nc1ccccc1	0.857	-1.37
Nc1nc(-c2cc3cc(Br)ccc3oc2=O)cs1	1	0.0157
COc1ccc(CCNc2oc(COc3ccccc3F)nc2C#N)cc1OC	0.868	-5.77
O=C(Cc1ccc(Cl)cc1)Nc1ccc(-c2nc3ncccc3o2)cc1	1.04	0.312
Cc1ccc2c(Cl)c(C(=O)N(Cc3ccc(C(C)C)cc3)C3CCS(=O)(=O)C3)sc2c1 (stereo not given)	0.835	-2.09
Cc1cccc(CCNC(=O)C2CCCN(S(=O)(=O)c3cnc[nH]3)C2)c1 (stereo not given)	1.09	3.85
COc1cccc(-c2cc(C(=O)Nc3c(C)cccc3C)c3ccccc3n2)c1	0.994	-0.242
CC(C)(C)c1ccc2c(c1)N(CC(=O)NCc1cccs1)C(=O)CO2	0.189*	-14*
CCCC(=O)N1CC(=O)Nc2ccc(F)cc2C1c1ccc(F)cc1 (stereo not given)	0.964	-0.15
CN(C)c1ccc(-c2nc3cnccn3c2Nc2ccc(Cl)cc2)cc1	0.642	-7.99
COCCNC(=O)c1ccc2c(c1)ncn2-c1ccc(C(C)C)cc1	1.03	0.851
CCOc1ccc(CNC(=O)CCc2nc(-c3ccccc3F)no2)cc1	0.948	-0.12
CCC(=O)N1CCc2cc(S(=O)(=O)Nc3cc(C)ccc3C)ccc21	0.801	-0.802
O=C(Nc1nnc(SCc2ccc(F)cc2)s1)c1ccccc1Br	1.2	0.854
Cc1nc2ccccn2c(=O)c1C(=O)NCc1ccccc1	1.05	2.47
COc1ccccc1N1C(=O)c2ccc(C(=O)Nc3nccs3)cc2C1=O	1.04	0.876
Cc1cc(C)n2nc(-c3ccccc3)cc2n1	0.996	-0.181
COc1ccc(-c2nc(SCC(=O)Nc3ccc(OC)c(OC)c3)c(-c3ccc(C)cc3)[nH]2)cc1	0.755	-11.6
O=c1c(S(=O)(=O)c2ccccc2)cn(Cc2ccc(F)cc2)c2ccc(F)cc12	0.96	-0.762
CCOC(=O)N1CCC(Nc2ccc3nncn3n2)CC1	0.989	-0.302
COc1ccc(N2CCN(C(=O)CCc3nc(-c4ccccc4F)no3)CC2)cc1	0.845	-2.38
O=S(=O)(c1cccc(-c2nnc(-c3ccccc3)o2)c1)N1CCCCCC1	1.13	4.49
CCOc1ccc(-c2csc(NC(=O)c3cccc(Oc4ccccc4)c3)n2)cc1	1.03	0.697
Cc1ccc(-c2nc(-c3ccccn3)no2)cc1Cl	0.94	-0.0703
O=C(CCCN1C(=O)CSc2ncccc21)NC1CCN(Cc2ccccc2)CC1	1.02	0.27
CCOC(=O)c1cc(-c2cccc(OC)c2OC)no1	1.22	2.11
Cc1ccc2cc(CCNC(=O)c3ccc(C(C)(C)C)cc3)c(=O)[nH]c2c1C	1.04	0.779
COc1cc(NC(=O)c2cc3sc(Cl)cc3n2C)ncn1	0.876	-2.04
Cc1c(Cl)cccc1NC(=O)c1oc2ccc(S(=O)(=O)N(C)C3CCCCC3)cc2c1C	1.06	2.41
CCOc1ccc(CN2C(=O)CCC2(C)C(=O)NC2CCCC2)cc1OC (stereo not given)	1.09	1.65
Cc1ccc(Cn2c(C(=O)Nc3ccc(F)cc3C)cc3oc(C)cc32)cc1	0.986	-0.375
COc1ccc(-c2cc(C(=O)NCc3ccccn3)c3cc(C(C)C)ccc3n2)cc1	0.953	-0.0523
COc1ccc(CCNC(=O)CCc2c(C)nc3cc(-c4ccccc4OC)nn3c2C)c(OC)c1	1	0.0851
FC(F)(F)c1nnc2ccc(-n3nnc4ccccc43)nn12	1.01&0.997	0.292&-0.0687
COCCCNCC1C(Oc2ccc(Cl)cc2)C(=O)N1c1ccccc1C (stereo not given)	1.22	2.58
Cc1oc(-c2ccccc2F)nc1CN1CCC(C(=O)NC2CCCCCC2)CC1	1.2	2.36
Cc1ccc(NC(=O)CCc2c(C)nc3cc(-c4ccc(Cl)cc4)nn3c2C)cc1	0.972	-0.674
CCN(CCCNC(=O)c1ccc2c(=O)n(CCOC)c(=O)[nH]c2c1)c1ccccc1	1	0.0484
COc1cc2c(cc1OC)-c1nnc(C)n1C1(CCCC1)C2	1.03	0.38
COc1cccc(-c2cc(C(F)(F)F)nc(-n3ccnc3)n2)c1	1.01	0.351
CC(C)OC(=O)Nc1ccc2c(c1)N(C(=O)CCN(C)C)c1ccccc1CC2	1.25	3.85
COc1ccc(OCCn2c(=N)n(Cc3ccccc3F)c3ccccc32)cc1	0.851	-3.95
CCOc1cccc(C(=O)Nc2cccc(-c3nc4ncccc4o3)c2C)c1	1.07	0.594
O=C(Nc1ccccc1Cl)c1cc(-c2cccs2)nc2ccccc12	0.928	-0.314
O=C(Cn1nc(Cc2ccncc2)c2ccccc2c1=O)Nc1cccc(C(F)(F)F)c1	1	0.132
c1ccc(CN2CCN(c3nc(-c4ccncc4)nc4ccccc34)CC2)cc1	0.948	-1.29
O=C(NCCCN1CCOCC1)C1CCN(c2nnc(-n3cccc3)s2)CC1	1.09	3
CCn1cc(C(=O)N2CCOCC2)c(=O)c2cc(S(=O)(=O)N3CCOCC3)ccc21	1.06	0.936

Remaining list, next part.
SMILES	CBX7 AlphaScr	CBX7 AlphaScr z-score
CCOC(=O)C1CCN(c2c(Nc3cccc(CC)c3)c(=O)c2=O)CC1	1.18	1.7
CCc1ccc(-c2cn(-c3ccc(C)c(Cl)c3)c(=O)[nH]2)cc1	0.929	-2.09
O=C(Cn1nc(-c2ccccc2)c2cc(Cl)ccc21)N1CCCC1	1.03	0.852
COCCN1Cc2cccc(C(=O)Nc3ccc(C(=O)OC)cc3)c2C1=O	1.03	0.36
Cc1cc(Cl)ccc1OC(C)C(=O)Nc1ccc(S(=O)(=O)Nc2cnc3ccccc3n2)cc1 (stereo not given)	1.09	1
CCCCN(C)C(=O)c1sc2ncn(CC(=O)Nc3cccc(C(F)(F)F)c3)c(=O)c2c1C	1.18	1.7
O=C(CSc1ccc2nnc(-c3ccccc3)n2n1)Nc1ccccc1F	0.93	-0.833
O=C(Cn1ncc2ccsc2c1=O)N1CCN(Cc2ccccc2)CC1	0.9	-1.27
COc1ccc2cc(CCNC(=O)c3ccc(C)c(C)c3)c(=O)[nH]c2c1	1	0.141
CCCNC(=O)Cn1cnc2sc(C(=O)NC3CCCCC3)c(C)c2c1=O	1.13	1.8
O=C(CN1C(=O)CC(c2ccccc2)Sc2ccccc21)NCc1ccc(F)cc1 (stereo not given)	0.985	-0.255
Cc1sc2ncnc(Nc3cccc(Cl)c3)c2c1C	1.17	6.51
Cc1cccc(Oc2nnc(-c3ccc(Cl)cc3)c3ccccc23)c1	0.719	-1.11
CCC1=Nc2cc(C(=O)NC)ccc2Sc2ccc(Cl)cc21	0.826	-2.49
Cc1nn(CC(=O)NCc2ccccc2)c(=O)c2ccccc12	1.05	1.59
Cc1nc2c(C(=O)NCC3CCCO3)cnn2c(C)c1Cc1ccc(F)cc1Cl (stereo not given)	0.913	-2.18
COc1ccc(-c2c(C)nn3c(NCCc4ccc(Cl)cc4)cc(C)nc23)cc1OC	0.859	-3.51
O=C(O)C1CCN(c2nc3cc(Br)ccc3s2)CC1	1.01	0.272
CC(C)CCNC(=O)c1ccc2c(c1)N(Cc1ccc(F)cc1)C(=O)c1ccccc1S2=O (stereo not given)	0.874	-1.8
CCCC1C(c2ccccc2)NC(c2ccccc2)CC1(C)O (stereo not given)	1.02	0.48
Cc1cc(C(=O)NCCN(C)C2CCCCC2)n(-c2ccccc2)n1	1.21	3.27
COc1ccc(NC(=O)C2CCCN(S(=O)(=O)c3ccc(Br)s3)C2)c(OC)c1 (stereo not given)	1.09	0.966
O=C(C1CCN(c2nnc(-n3cccc3)s2)CC1)N1CCCC1	1.01	0.211
Cc1ccccc1-n1nc2c(c1NC(=O)COc1ccc(Cl)cc1)CS(=O)(=O)C2	1.15	0.978
Cc1cnccc1CC(O)(c1ccccc1)c1ccccc1	0.939	-1.2
CC(=O)N1CCc2cc(S(=O)(=O)NCCC(=O)NCCc3ccccc3)ccc21	1.07	1.05
Cc1c(C)n(C)c2ccc(C(=O)Nc3nc4ccccc4n3Cc3ccccc3)cc12	0.793	-0.281
COc1ccc(Cl)cc1-c1nc(-c2nonc2N)no1	0.98	-0.557
Cc1[nH]c2ccc(OC(F)(F)F)cc2c1CCNC(=O)COc1ccc(F)cc1F	0.886	-1.65
COCCNC(=O)c1nonc1N	1.04	1.72
COc1ccccc1C(=O)Nc1cc(-c2nn(C)c(=O)c3ccccc23)ccc1N1CCCCC1	0.917	-2.95
CCc1cccc(NC(=O)CN2C(=O)COc3ccc(S(=O)(=O)N4CCC(C)CC4)cc32)c1	0.863	-1.95
Cc1ccc(C)c(N(C)C(=O)c2cc3c(s2)-c2ccccc2OC3)c1	1.11	5.28
CCN(CC)CC(O)COc1ccc2c(c1)c(C(C)=O)c(C)n2-c1ccccc1 (stereo not given)	1.25	0.499
Fc1ccc(-c2cc(C(F)(F)F)nc(NCc3ccc(Cl)cc3)n2)cc1	1.25	2.79
O=C(Cn1nc(-c2ccccc2)c2cc(Cl)ccc21)NCCC1=CCCCC1	0.987	-0.444
CCCC1=Nc2cc(C(=O)NCCc3cc(OC)ccc3OC)ccc2Sc2ccccc21	0.837	-8.41
O=C(NCc1ccc(F)cc1)c1cc(-c2ccc(Cl)c(Cl)c2)on1	1.1	2.9
COCCNC(=O)c1ccc2c(c1)N(Cc1cc(C)ccc1C)C(=O)c1ccccc1S2(=O)=O	0.96	-1.13
CC(C)Cc1ccc(-c2csc(Nc3ccc(Oc4ccccc4)cc3)n2)cc1	0.487*	-8.87*
Clc1ccc(OCc2cn3cccnc3n2)cc1	0.786	-0.846
CC1CCN(S(=O)(=O)c2ccc(F)c(C(=O)Nc3cccc(Cl)c3)c2)CC1	1.04	0.334
O=C(Nc1ccc(COCC(F)(F)F)cc1)Nc1ccc2snnc2c1	1.01	0.588
Cc1ccc(S(=O)(=O)C2(C(=O)Nc3cc(F)ccc3F)CC2)cc1	1.19	3.8
CCC1Oc2ccc(C)cc2N(CC(=O)NCCCN(CC)c2cccc(C)c2)C1=O (stereo not given)	0.561	-4.35
CN(C)CCNS(=O)(=O)c1ccc2c(c1)CCN2C(=O)C1CCC1	0.996	-0.142
COc1ccc(CCN2C(=O)CC(Cc3ccc(C)cc3)C2=O)cc1OC (stereo not given)	1.02	0.522
CCCCNC(=O)c1sc2ncn(CC(=O)Nc3cccc(C(F)(F)F)c3)c(=O)c2c1C	1.13	1.25

Three structures already listed, arranged by formula weight, high to low.
SMILES	CBX7 AlphaScr	CBX7 AlphaScr z-score
O=C(Nc1nnc(SCc2ccc(F)cc2)s1)c1ccccc1Br	1.2	0.854
CCOC(=O)N1CCN(c2c(NCCN3CCCCC3CC)c(=O)c2=O)CC1 (stereo not given)	0.962	-0.673
CCOC(=O)c1cc(-c2cccc(OC)c2OC)no1	1.22	2.11

Other compounds:
SMILES	CBX7 AlphaScr	CBX7 AlphaScr z-score
CC(CN1CCNCC1)(NS(=O)(=O)c1ccccc1)c1ccccc1 (stereo not given)	1.01	0.0618
Cc1ccccc1Nc1c(-c2cc(Br)ccc2F)nc2cccc(C)n12	0.986	-0.145
CCOc1ccc(CCNC(=O)Cn2ncc3c2-c2cc(C)ccc2OC3)cc1	1.15	2.83
COc1ccc(NC(=O)c2oc3ccc(S(=O)(=O)N4CCCC4)cc3c2C)cc1	1	0.00456

Not all compounds are listed, so the mix of outcomes need not match the whole.
